Screening results (PubChem)
HIV TAR-Tat: HIV-1 TAR-Tat binding disruption. HIV-1 TAR RNA, Tat peptide displacement FRET; stronger effect = higher value. z-score (concentration not given with the values). 0.6% of 100,000 active. AID 1259389;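 also: score is relative to mean and SD of negative controls; some compounds called inactive have numbers as strong as hits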
CDC25B CDK2 inh: human CDC25B-CDK2/CyclinA binding inhibition. P30305+P24941. HTRF CDC25B-CDK2/CyclinA binding, anti-His/anti-Flag; stronger effect = higher value. z-score (no concentration beside the values). 0.72% of 94,000 active;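 also: score is relative to mean and SD of negative controls; strong numbers were not always called active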
The depositor's hits bear a star; . = not tested or not shown.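 The calls were made as follows: active = z-score from 3 up in half or more of its runs; inactive = the rest.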

Each structure is followed by: HIV TAR-Tat	CDC25B CDK2 inh
COc1cc(NC(=O)CN2N=NC3C(=O)N(c4ccc(Cl)cc4)C(=O)C32)cc(OC)c1 (centres undefined)
    0.18	.
Fc1ccc(CNCc2ccccn2)cc1
    0.14	1.8
COc1ccc(-c2nc(CNS(=O)(=O)c3ccc(OC)c(OC)c3)cs2)cc1
    -0.05	-2.3
O=C(Cn1cc(SCC(=O)N2CCc3ccccc32)c2ccccc21)N1CCCC1
    -1.2	.
CCc1cc2c(=O)c(-c3nc4ccccc4n3C)c(C)oc2cc1O
    -0.12	0.82
CCn1c(=O)oc2ccc(C(=O)O)cc21
    2.8	.
CN(CCCNS(=O)(=O)c1cc2c(cc1Cl)NC(=O)CO2)c1ccccc1
    0.49	.
COc1cc(C2c3c(oc4ccccc4c3=O)C(=O)N2Cc2ccc(F)cc2)ccc1O (centres undefined)
    0.14	-0.18
O=S(=O)(c1cccs1)N1CCCN(CCc2ccccc2)CC1
    .	3.4
O=C(NC1COc2ccccc2C1)N1CCC(N2CCCCC2)CC1 (centres undefined)
    0.53	.
Cn1c(=O)cc(OCCCC(=O)N2CCC(N3CCCCC3)CC2)c2ccccc21
    .	-1.2
Cc1ccc(N2C(=O)c3ccncc3C2=O)cc1F
    0.02	.
Cc1nn(CCCC(=O)N2CC(C)CC(C)C2)c(=O)c2cc3sccc3n12 (centres undefined)
    1.4	-1.6
Cc1nc(N2CCN(C)CC2)ncc1C(=O)NCc1cccs1
    2.3	.
Cc1ccc(O)c(-c2ccnc3cc(-c4ccccc4)nn23)c1
    0.7	0.8
O=C1NCCOc2ccc(S(=O)(=O)Nc3cccc(F)c3)cc21
    1.9	.
Nc1nc(-c2ccc(F)cc2)nn1C(=O)C1CC1
    0.35	-0.48
CCC(C)NC(=O)C1=CC(c2cc(OC)ccc2OC)=NS(=O)(=O)N1C (centres undefined)
    2	-0.45
Cc1ccc(OCC(=O)O)c([N+](=O)[O-])n1
    .	-1.6
COc1ccc(N2CSC3=C(C#N)C(c4cccs4)CC(=O)N3C2)cc1 (centres undefined)
    -0.62	1.6
CSc1cccc(NC(=O)Cn2cnc(S(=O)(=O)N3CCCC3)c2)c1
    0.87	.
O=C(NCc1cccs1)c1cnc2sc(N3CCCCC3)nn2c1=O
    1.7	.
Cc1ccc(NC(=O)O/N=C(\N)c2ccc(NS(C)(=O)=O)cc2)cc1
    .	-1.5
CC(=O)N1N=C(c2cc(C3CC3)nc3ccccc23)OC1c1ccccc1 (centres undefined)
    1.6	.
Nc1ccc2nc(CCCCCCc3nc4ccc(N)cc4[nH]3)[nH]c2c1
    .	-1.6
CC(C)c1ccc(NS(=O)(=O)c2ccc(C#N)cc2Cl)cc1
    .	-1.1
CN(C)n1cccc1/C=C(\C#N)C(=O)c1ccco1
    .	-2.4
S=c1[nH]nc(-c2cccs2)n1/N=C/c1cn(-c2ccccc2)nc1-c1ccc(Cl)cc1
    .	0.03
Cc1cc(Cl)ccc1NS(=O)(=O)c1ccc(CN2C(=O)c3cccnc3C2=O)s1
    -0.93	.
O=C(CCCc1nnc2c(=O)n(-c3ccc(Cl)cc3)ccn12)N1CCN(c2ccccc2)CC1
    0.29	.

Ordered by molecular weight (smallest number first): some entries from above.
Each structure is followed by: HIV TAR-Tat	CDC25B CDK2 inh
Nc1nc(-c2ccc(F)cc2)nn1C(=O)C1CC1
    0.35	-0.48
CC(C)c1ccc(NS(=O)(=O)c2ccc(C#N)cc2Cl)cc1
    .	-1.1
Cc1ccc(NC(=O)O/N=C(\N)c2ccc(NS(C)(=O)=O)cc2)cc1
    .	-1.5
CSc1cccc(NC(=O)Cn2cnc(S(=O)(=O)N3CCCC3)c2)c1
    0.87	.
O=C(CCCc1nnc2c(=O)n(-c3ccc(Cl)cc3)ccn12)N1CCN(c2ccccc2)CC1
    0.29	.

Continuation.
Each structure is followed by: HIV TAR-Tat	CDC25B CDK2 inh
Cn1ncc2c(N3CCOCC3)nc(N3CCCC3)nc21
    1.6	.
O=C(Nc1ccc(Cl)c(Cl)c1)Nc1ccccc1C(=O)O
    .	-0.07
O=C(Nc1ccncc1)c1ccccc1
    .	0.25
Cc1ccc(CSc2nc3nccnc3c(=O)n2Cc2ccc3c(c2)OCO3)cc1
    -2.1	.
CCc1cccc(C)c1NS(=O)(=O)c1ccc(-c2ccc(=O)[nH]n2)o1
    1.6	.
CNc1nc(Nc2ccc(C)cc2)c2cnn(C)c2n1
    -0.55	.
O=C(c1cnc2sc(N3CCOCC3)nn2c1=O)N1CCN(Cc2ccccc2)CC1
    -0.05	.
Cc1ccc(S(=O)(=O)NCCc2nnc3ccc(SCc4cccnc4)nn23)cc1
    1.6	.
O=C(COCc1cc(-c2ccc3c(c2)OCO3)on1)NCCc1cccs1
    -0.09	.
O=C(Nc1ccccc1)c1cc(S(=O)(=O)NCc2ccccc2)c(Cl)cc1Cl
    .	-0.57
Cc1cc2cc(CCNS(=O)(=O)c3ccc(Cl)cc3)c(=O)[nH]c2cc1C
    .	-1.1
CCOC(=O)CCc1c(C)nn(-c2ccc(N3CCOCC3)nn2)c1C
    0.59	-1.3
Cc1ccc(NS(=O)(=O)c2ccc3c(c2)oc(=O)n3C)cc1C
    .	0.14
Nc1nc(C2COc3ccccc3O2)ncc1S(=O)(=O)c1ccc(Cl)cc1 (centres undefined)
    .	-1.5
O=C(Nc1ccc2c(c1)OCCO2)C1c2ccccc2C(=O)N(C2CCCC2)C1c1cccs1 (centres undefined)
    2.4	.
Cc1ccc(-n2nnc(-c3nc(-c4ccccc4C)no3)c2C)cc1F
    0.42	.
Cc1ccc(-c2nn(CC(=O)OC(C)C)c(=O)c3c2CCCC3)cc1S(=O)(=O)N1CCCC1
    -1.4	-0.81
Cc1cc(-c2noc(-c3ccccc3)n2)no1
    .	-0.76
CS(=O)(=O)c1nc(-c2ccco2)cc(C(F)(F)F)n1
    .	-3.1
CC1=C(c2ccccc2)S(=O)(=O)NC1=NCCc1ccc(Cl)cc1
    -0.03	-4.1
Cc1ccc(NS(=O)(=O)c2cc(Br)cnc2N)cc1
    2.2	-0.99
Cc1cccc(C)c1NS(=O)(=O)c1c(C)nc2sccn2c1=O
    0.72	.
CC(C)C(NC(=O)OCc1ccccc1)C(=O)NC(Cc1ccc(O)cc1)C(=O)O (centres undefined)
    .	0.51
CCCN(CCC)S(=O)(=O)c1ccc(C(=O)NNC(=O)/C=C/C(=O)O)cc1
    .	-0.85
CCOC(=O)Cc1csc(NC(=O)C2(c3cccs3)CCOCC2)n1
    1.9	.
CC1CCCCN1CCNC(=O)Cn1c(=O)c2cccn2c2cccnc21 (centres undefined)
    -1.1	.
CCC(C)(C)NC(=O)Cn1c(=O)oc2cc(S(=O)(=O)N3CC(C)CC(C)C3)ccc21 (centres undefined)
    0.33	-0.52
O=C(NC1CCCC1)c1cc2c(s1)-c1ccc(Cl)cc1S(=O)(=O)C2
    1.9	-0.7
O=C(O)CCSCCc1ccncc1
    1	.
CC(C)CCn1cnc2c(oc3ccccc32)c1=O
    2.1	.
Cn1c(=O)c2c(-c3ccc(Cl)cc3)n(Cc3ccc(Cl)cc3)cc2n(C)c1=O
    0.01	-1.8
CCNCCNC(=O)c1c(O)c2cccc3c2n(c1=O)CC3
    1.6	.
Cc1ccc(CSc2nnc(-c3cnccn3)s2)cc1
    .	-1.7
CCC(C)Nc1nc(N)c([N+](=O)[O-])c(Nc2ccccc2)n1 (centres undefined)
    0.54	.
COC(=O)c1sccc1NS(=O)(=O)c1ccc(N2C(=O)CC3(CCCC3)C2=O)c(Cl)c1
    .	-0.57
CCN(CC)c1nc(N2CCCC2)c2cnn(C)c2n1
    0.99	.
CC(=O)Nc1cc(-c2nc(-c3ccc4c(c3)nnn4C)no2)ccc1C
    1.7	.
COc1ccc(-n2nc(C(=O)O)c(C)c(C#N)c2=O)cc1
    0.66	1.5
Cn1c(=O)c2c(ncn2CC(=O)Nc2ccncc2)n(C)c1=O
    .	-3.3
CC(=O)Nc1ccc(OCc2cc(=O)n3ccccc3n2)cc1
    -5.3	.
Cc1cc(NC(=O)CSc2nc3c(cc2C#N)CCCCC3)no1
    0.48	-0.14
CC(C)n1c(SCc2ccccc2)nnc1-c1ccc2c(c1)OCCCO2
    3.3	.
Cc1noc(C)c1C(=O)OCc1ccc(-c2ccc(F)cc2F)o1
    .	-0.63
O=C(Oc1ccc2c3c(c(=O)oc2c1)CCCC3)c1ccco1
    .	0.31
COCCc1nn2c(=O)cc(COC(=O)COc3ccc(C)cc3)nc2s1
    -0.48	.
O=C1C=C(c2ccccc2)OC2(CCCCC2)O1
    .	-1.3
O=C(CSc1nc2ccccc2c(=O)[nH]1)Nc1ccc(F)cc1
    1.2	.
Nc1cccc2nsnc12
    .	-2.1
CCc1ccc(S(=O)(=O)c2cn(CC)c3cc(N4CCOCC4)c(F)cc3c2=O)cc1
    0.44	.
O=C(NCc1ccc2c(c1)OCO2)c1cc(-c2cccs2)on1
    2	-2.5
CCOC(=O)C1=C(C(=O)OCC)SC(=C2C(=S)C(C)(C)Nc3ccc(C)cc32)S1
    1.2	19*
Cc1cc(C)nc(SCCS(=O)(=O)c2ccc(C(C)(C)C)cc2)n1
    .	-0.31
Nc1nnc(SCC(=O)Nc2ccc3nc(SCC(=O)Nc4ccccc4)sc3c2)s1
    .	-3.4
COc1ccc(Oc2ccc([N+](=O)[O-])c(Oc3ccc(OC)cc3)n2)cc1
    .	-2
c1ccc(CN2CCc3nc(Nc4ccc5c(c4)OCO5)ncc3C2)nc1
    2.1	.
COc1c2c(c(OC)c3occc13)OC(C(=O)O)CC2=O (centres undefined)
    .	-1.6
CN1CCOc2ccc(S(=O)(=O)NC3CCCCC3)cc21
    1.1	.
CC(C)CCNC(=O)C1(C)Cn2c(cc3ccccc32)C(=O)N1CCc1ccco1 (centres undefined)
    2.1	.
O=S(=O)(c1ccc(Br)cc1)N1CCCN(Cc2c(F)cccc2F)CC1
    .	0
CCOc1ccc(C2C(C(=O)OC(C)C)=C(C)NC3=C2C(=O)CCC3)cc1OC (centres undefined)
    -0.03	-0.18

Remaining list, next part
Each structure is followed by: HIV TAR-Tat	CDC25B CDK2 inh
O=C(CCS(=O)(=O)c1ccc2c(c1)NC(=O)CS2)NCc1ccco1
    -0.36	.
COc1ccc(Oc2coc3cc(OC(=O)c4ccc(C)cc4)ccc3c2=O)cc1
    0.84	-0.62
CCc1noc2ncnc(N3CCCC(C(=O)NC4CC4)C3)c12 (centres undefined)
    1.3	.
Cc1occc1-c1nnc2n1N=C(c1ccc(Br)cc1)CS2
    -1.5	-1.7
COc1cc(/C=C/C(=O)CC(=O)/C=C/c2ccc(O)c(OC)c2)ccc1O
    15*	.
COc1ccccc1CN1CCc2nc(N3CCN(C)CC3)ncc2C1
    1.9	.
Cc1cc(C)n(Cc2c(C(=O)NCc3c(C)nn(C)c3C)noc2C)n1
    1.8	.
COc1cc2c(cc1OC)C(c1ccc(Cl)cc1Cl)NC(=O)C2 (centres undefined)
    .	0.65
O=S(=O)(CCc1ccncc1)Cc1ccc2c3c(cccc13)CC2
    1.4	-1.2
O=C(O)Cn1cnc2c(-c3ccc(Cl)cc3)noc2c1=O
    -0.24	-0.72
CC(=O)Nc1ccc(S(=O)(=O)[C@H]2CS(=O)(=O)C[C@@H]2N2CCOCC2)cc1
    0.79	-1.2
CN1C(=O)c2cc(NC(=O)c3ccco3)ccc2N2CCN=C12
    0.78	.
O=C(CSCc1cnn(-c2ccccc2)c1-n1cccc1)Nc1ccc(F)cc1F
    1.6	-0.81
O=S(=O)(Nc1ccc(F)c(Cl)c1)c1ccc(N2CCCCS2(=O)=O)cc1
    1.6	.
COc1ccc(-c2cn3c4ccccc4n(CCN4CCOCC4)c3n2)cc1
    .	1.1
O=C(CSc1nnnn1-c1ccccc1)N1c2ccccc2Sc2ccccc21
    2.4	-0.97
COc1ccc(S(=O)(=O)c2c(-c3ccc(F)cc3)cn3ccccc23)cc1
    -2.3	.
CCC(C)Nc1nc(N)c([N+](=O)[O-])c(NC2CCCCC2)n1 (centres undefined)
    0.94	.
N#Cc1nc(/C=C/c2cccs2)oc1N1CCN(c2ccccc2)CC1
    -2.1	-1.5
CNC(=O)c1c(NC(=O)c2ccc(F)cc2)sc2c1CCC2
    -4.7	.
COc1ccc(-c2ccc(-c3noc(C4CCCCC4)n3)c(OC)n2)cc1
    -1.9	-1.4
CN1C(=O)N(c2ccc(Cl)cc2)C(C)(O)CC1(C)C (centres undefined)
    .	-1.5
Cc1cc(C)c(S(=O)(=O)NCCn2nc(-c3ccc(Cl)cc3)ccc2=O)cc1C
    0.62	.
Cc1cc(C)n(-c2cc(-c3ccccc3)nc3ncnn23)n1
    .	-0.26
CCCN1CCN(c2cc3c(cc2F)c(=O)c(S(=O)(=O)c2ccc(C)cc2C)cn3CC)CC1
    -0.27	.
CSc1nnc(-c2ccc(C(F)(F)F)cn2)o1
    .	-1.9
Cc1cc(C)cc(Nc2nn3nnnc3c3ccccc23)c1
    0.16	.
CCSc1nc2n(n1)C(c1ccccc1Cl)C1=C(CCCC1=O)N2 (centres undefined)
    -1.1	-0.17
CCOc1ccc(S(=O)(=O)NC2CCCCC2)cc1-c1nc(C)no1
    1.1	-2.5
CN(C)c1ccc(-c2nc3cc(N)ccc3o2)cc1
    2.5	-4.2
